Bioassay records from PubChem BioAssay.
Beta cell apopt = beta cell apoptosis inhibition. hit rate 0.8% among 300,000. AID 435005. INS-1E cytokine-induced death, ATP luminescence, 48 h; percent of positive-control rescue, neutral wells zero. protection from apoptosis, % (test concentration not listed);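 active = all replicates at 75% or more, or half of them and the mean; inconclusive = half reach 75% but not the mean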;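 also: 0% = cytokine-treated negative control wells and 100% = positive control rescue; higher means more ATP so stronger rescue from cytokine killing; wells of about 40 µL received 100 nL stock; the first replicate is given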
Vif A3G = HIV-1 Vif–A3G interaction blockers – biochemical, TR-FRET, GST-Vif 1-94, biotin-A3G peptide, dose response retest, primary screen (AID 1117319) | TR-FRET GST-Vif / biotin-A3G peptide binding; higher % means a stronger effect; test concentration not given here; strong numbers were not always called active | one-dose inhibition, %; IC50 in µM for titrated hits | hit rate 0.57% among 260,000;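 active = above the screen mean plus three standard deviations and confirmed in dose response; inconclusive = results disagree or hit not tested in dose response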;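 also: Vif residues 1-94 fused to GST binding biotinylated APOBEC3G peptide 110-148; 0% = full assay without inhibitor and 100% = GST in place of GST-Vif; retest series ran down from 100 µM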
T cruzi repl = blocks replication of Trypanosoma cruzi. T. cruzi beta-gal in NIH3T3, luminescence, 90 h. inhibition, % (no concentration beside the values). hit rate 1.4% among 300,000;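 active = mean inhibition across valid replicates above about 55%, limit read from the data; inconclusive = mean below that limit but half or more replicates reach it; inactive = mean below it, under half of replicates reach it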;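 also: signal also drops with host cell toxicity which is not excluded here; 0% = plate median of DMSO wells and 100% = zero luminescence signal; higher percent means less beta-gal luminescence so fewer parasites; stock transfer was 50 nL into about 50 µL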
Ecoli rRNA inh = inhibits bacterial ribosomal RNA function over humanized ribosomes | E. coli WT GFP vs humanized-ribosome RFP mutants, fluorescence, 24 h; active compounds read low; DMSO median 0, no signal -100 | GFP signal change (wild-type ribosome), % (concentration not given with the values) | hit rate 1.6% among 350,000 | AID 720706;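 active = significant combined selectivity score with lowered wild-type GFP, culture density cut under 30%, mutant RFP and density less affected; inactive = any of these conditions unmet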; also: one replicate is shown; some compounds called inactive have numbers as strong as hits
Calb FLC = C. albicans growth modulation with fluconazole. C. albicans CaCi-2 (fluconazole-resistant clinical isolate) + fluconazole, Alamar Blue growth, 48 h. growth inhibition, % (test concentration not listed). hit rate 0.57% among 300,000. AID 1979;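 active = most replicates above 75%; inconclusive = exactly half above 75%; inactive = most below 75%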;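 also: all wells also contain fluconazole at 8 µg/ml as a sub-toxic cotreatment; 0% = median of DMSO wells and 100% = median of geldanamycin control wells; wells of about 8 µL received 7.5 nL stock; the first replicate is given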
RanGTP-Imp inh = inhibitors of RanGTP-importin-beta interaction, primary screen, biochemical, FRET, CFP-Ran, YFP-importin-beta, homogeneous | inhibition, % (no concentration beside the values) | hit rate 1.1% among 300,000 | AID 2216 | cell-free CFP-Ran/YFP-importin-beta FRET ratio;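 active = most replicates above 15%; inconclusive = exactly half above 15%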;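 also: 0% = DMSO wells and 100% = Ran loaded with GDP instead of GTP; wells of about 40 µL received 100 nL stock; the first replicate is given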
Bfl-1 A1 inh = inhibitors of the anti-apoptotic protein A1, read as caspase activation; MEF A1-2A-BIM cells, Caspase-Glo 3/7 luminescence, 3 h; percent of clofoctol response, vehicle zero; caspase activation, % (test concentration not listed); hit rate 0.066% among 330,000; AID 2462;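 active = over half of replicate activation scores above 10%, or exactly half above 10 with the replicate mean above 10; inconclusive = replicate mean below 10 yet half the replicates above 10; inactive = over half of replicates below 10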;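 also: wells of about 30 µL received 50 nL stock; many hits fall short of the cut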
MLL AF4-AF9 inh = inhibitors of human MLL-AF4/AF9 interaction; P42568; AlphaScreen, biotin-AF4 peptide binding to FLAG-AF9; inhibition, % at 10 µM; hit rate 0.47% among 350,000; AID 651704;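 active = every replicate reaching a set inhibition limit, whatever the replicate mean, cut at about 25% in these data; inconclusive = mean inhibition reaches that limit but some replicates miss it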;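 also: 0% = plate neutral control median and 100% = total signal loss; the record names both 10 and 1 µM as test concentration; the first replicate is given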
Target sequence (P42568 whole entry, looked up): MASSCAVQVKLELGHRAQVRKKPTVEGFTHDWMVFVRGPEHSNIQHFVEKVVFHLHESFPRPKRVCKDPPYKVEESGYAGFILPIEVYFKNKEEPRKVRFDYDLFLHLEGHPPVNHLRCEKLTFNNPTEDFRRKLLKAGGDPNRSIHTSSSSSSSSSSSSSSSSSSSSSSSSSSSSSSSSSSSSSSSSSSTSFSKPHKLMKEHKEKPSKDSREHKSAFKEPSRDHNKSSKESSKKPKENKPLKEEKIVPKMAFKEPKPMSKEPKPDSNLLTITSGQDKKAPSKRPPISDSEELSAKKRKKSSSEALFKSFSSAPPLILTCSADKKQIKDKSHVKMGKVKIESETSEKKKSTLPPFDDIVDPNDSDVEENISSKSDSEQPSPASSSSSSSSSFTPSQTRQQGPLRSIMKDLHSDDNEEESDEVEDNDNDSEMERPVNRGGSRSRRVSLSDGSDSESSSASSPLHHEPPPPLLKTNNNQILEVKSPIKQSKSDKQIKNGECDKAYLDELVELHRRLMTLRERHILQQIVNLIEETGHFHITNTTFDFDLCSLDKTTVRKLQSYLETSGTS
Ecoli rRNA inh OD600 = also measured in Ecoli rRNA inh; calls as there; OD600 change, %; measured here: OD600 growth;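 optical density of the mix in the first replicate; 0 = DMSO median and -100 = no signal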
Ecoli rRNA inh RFP = second read-out of Ecoli rRNA inh, no call of its own (marks repeat the call); RFP signal change, %; measured here: RFP humanized mutant strains;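 first replicate; 0 = DMSO median and -100 = no signal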
Active calls of the source: *; ? = inconclusive; . = not tested or not shown; & = joins results of further samples. These rows are one share of the data; count on the stated rates, not on these rows.

Order of values – Beta cell apopt, Vif A3G, T cruzi repl, Ecoli rRNA inh, Ecoli rRNA inh OD600, Ecoli rRNA inh RFP, Calb FLC, RanGTP-Imp inh, Bfl-1 A1 inh, MLL AF4-AF9 inh
(1) Cc1ccc(C(=O)Oc2coc(CSc3nnc(NC(=O)c4cccs4)s3)cc2=O)cc1
 : 1, ., 4, ., ., ., 2, ?, -0.8, .
(2) O=S(=O)(c1ccccc1)c1nc(-c2ccco2)oc1NCc1ccccc1
 : 1, 7%, 0, ., ., ., 23, 0.5, ?, .
(3) CCN(CC(=O)Nc1ccc(OC)cc1)C(=O)c1ccc([N+](=O)[O-])cc1
 : -12, 12%, -13, 16, 1, 0.7, -14, -0.5, -0.3, -0.8
(4) CC(=O)Nc1cccc(OC(=O)N2CCOCC2)c1
 : -3, -2%, ., ., ., ., -1, 3.5, -0.2, .
(5) CC(=O)CC(C)(C)Nc1nc2ccc([N+](=O)[O-])cc2o1
 : 6, 4%, -9, 4, 3, 13, -17, -2.6, -0.1, -6.1
(6) Cc1ccc(S(=O)(=O)N(C)CC(=O)N2CCC(C(N)=O)CC2)cc1
 : ., ., -5, 4, 3, 1.3, -1, -0.6, ., -11
(7) COc1ccc(C2CC(c3ccccc3)=NN2S(=O)(=O)c2ccc(C)cc2)c(OC)c1 (stereo not given)
 : -1, ., 37, ., ., ., 0, 0.0, -0.6, .
(8) CCCCSc1nnc(CCNC(=O)OC(C)(C)C)o1
 : -4, 8%, -3, 1, 5, -0.5, 7, 0.8, -0.6, 3.0
(9) Cc1ccc(S(=O)(=O)C(C#N)c2nc3ccccc3nc2N2CCN(C)CC2)cc1 (stereo not given)
 : -10, -3%, -9, ., ., ., 38, 64*, 0.1, .
(10) CC(C)(C)C1=CC(=Nc2ccccc2N)C=C(C(C)(C)C)C1=O
 : -2, -2%, -5, -10, -3, -2.4, 1, -1.9, 0.5, 73*
(11) O=C(O)c1ccc2c(=O)n(-c3ccccc3)c(=S)[nH]c2c1
 : -5, -5%, -7, 12, 14, 4.1, 2, 0.0, 0.6, 0.8
(12) Cc1ccc(S(=O)(=O)NCCC(=O)N2CCN(C/C=C/c3ccccc3)CC2)cc1
 : -4, 83%, ., ., ., ., ., ., -0.3, 3.6
(13) COc1ccc2oc(CS(=O)c3ccccc3)c(C(=O)O)c2c1 (stereo not given)
 : -10, -5%, 4, -12, -15, -4.1, -5, 1.0, -4.7, 1.9
(14) Cc1ccc(/C=C2\Oc3cc(OC(=O)N4CCOCC4)ccc3C2=O)cc1
 : -16, ., 6, ., ., ., -13, 2.4, 0.9, .
(15) O=C(O)c1ccc(C(=O)O)c(C(=O)c2ccc(NC(=O)c3ccccc3)cc2)c1
 : -16, -5%, -12, 12, 17, -0.5, 7, -0.5, 0.3, -1.3
(16) CCN(CC)CCNc1ncnc2c1[nH]c1ccc(OC)cc12
 : -6, -5%, 7, ., ., ., -6, -3.4, 0.2, .
(17) CCOC(=O)[C@H]1[C@H]2COc3cc(OC)ccc3[C@@H]2N2C(=O)CN(Cc3ccco3)C(=O)[C@@]12C
 : 3, ., ., 3, 16, 10, ., ., 0.7, -3.0
(18) CCOc1ccc(NC(=S)N2CCN(CCN3C(=O)c4cccc5cccc(c45)C3=O)CC2)cc1
 : 16, ., 12, -2, -4, 2.1, 1, 2.2, 0.3, 0.6
(19) O=C(NCCc1csc(-c2ccc(C(F)(F)F)cc2)n1)c1cccs1
 : 1, 3%, -3, -15, -55, -15, -4, 6.2, 0.2, -1.4
(20) Nc1nc(/C=C/c2cccnc2)nc(-c2ccccc2O)n1
 : 4, ., -18, 43, 23, 6.8, 19, 10, -0.8, 0.4
(21) Cc1ccc(-n2nnnc2SCC(=O)c2cc(C)n(-c3cc(C)on3)c2C)cc1
 : 7, -4%&-1%, 2, ., ., ., -8, 1.7, 0.0, .
(22) CC(C)CNc1nc(Oc2ccc(=O)n(C)n2)nc(N2CCOCC2)n1
 : 0, 0%, 4, ., ., ., 2, 2.6, 0.2, .
(23) CCCN1C(=O)/C(=C/c2ccc(C)s2)SC1=Nc1ccc(OC)cc1
 : 2, 0%, 23, ., ., ., -2, -0.2, -0.9, .
(24) Cc1c(C(=O)N(CCC#N)c2ccccc2)sc2nc3n(c(=O)c12)CCCC3
 : -2, ., -13, -2, 0, -1.3, 0, 0.8, 0.0, -0.9
(25) CC(C)c1nnc2n1N=C(c1ccc(Cl)cc1)CS2
 : -12, ., -3, 0, -4, 0.4, 8, 2.0, 1.5, 1.1
(26) COc1ccc(Cl)cc1S(=O)(=O)NC(C)C(=O)NCc1cccnc1 (stereo not given)
 : -2, ., -5, 6, 5, -2.8, 19, -0.3, 0.9, 4.2
(27) Cc1ccc(S(=O)(=O)NCC(=O)OC(C)C(=O)Nc2ncc(Cl)cc2Cl)cc1 (stereo not given)
 : -3, 25%, -20, ., ., ., 20, 3.0, -0.3, .
(28) Cc1cc(C)nc(NC(=O)c2ccc(Cl)c(Cl)c2)n1
 : ., 3%, -3, ., ., ., -7, 3.4, -2.1, .
(29) CC(=O)NC(=S)Nc1ccc([N+](=O)[O-])cc1C
 : 5, 6%, -7, -5, -1, -4.8, -14, -2.7, 1.1, 0.2
(30) CC(C)CNC(=O)CCCSc1nc2ccccc2[nH]1
 : -3, 0%, -8, -1, 6, 1.9, -16, -3.7, 0.4, -2.1
(31) COc1ccc(NC(=O)Cn2c(=O)n(CC(=O)NCc3ccco3)c(=O)c3ccccc32)cc1OC
 : -4, -2%, -10, ., ., ., -4, -3.5, -0.4, .
(32) COc1cccc(CNc2ccc3c(c2)nc(C)n3C)c1OC
 : -4, ., 8, -1, 5, -2.2, 12, -1.6, -3.1, -2.5
(33) CCCNC(=O)Cc1c(C)oc2ccccc12
 : -7, ., -9, -14, -13, 1.2, 2, -1.2, -0.2, .
(34) O=C(COC(=O)c1c[nH]c(=O)[nH]c1=O)Nc1ccccc1
 : -3, ?, -16, 4, 3, -1.3, 38, -4.2, -0.1, 1.7
(35) Cc1ccc(C(=O)NCc2ccc3c(c2)OCO3)cc1Cl
 : -2, ., 2, -4, 4, 1.0, -16, 8.1, 1.4, 1.8
(36) Cc1nnsc1C(=O)NC1CCCc2c1cnn2-c1ccc(C(C)(C)C)cc1 (stereo not given)
 : 75*, ., 56*, -29, -50, -5.8, 2, -8.6, 0.7, 2.0
(37) O=C(Nc1ccc(-c2nc3ncccc3o2)cc1)c1ccc([N+](=O)[O-])o1
 : 36, ., 19, 4, 9, 0.0, -5, 1.9, 0.1, 0.5
(38) Cc1ccc(C(=O)OCC(=O)Nc2c(C)n(C)n(-c3ccccc3)c2=O)cc1[N+](=O)[O-]
 : -1, -13%, -7, 15, 9, -0.1, 24, 1.9, -0.3, -2.9
(39) CC(=O)Nc1ccc(N/C=C/C(=O)c2ccccc2)cc1
 : 0, ., -16, -2, 10, 11, 4, 0.7, -9.1, -0.1
(40) Cc1cc(C)cc(NS(=O)(=O)c2c(C(=O)N3CCCCCC3)c(C)n(C)c2C)c1
 : -6, -6%, 13, -29*, -12*, 2.3*, -14, 1.9, 0.2, 4.0
(41) Cn1c(=O)cc(OCCCC(=O)N2CCN(Cc3ccc4c(c3)OCO4)CC2)c2ccccc21
 : 7, -3%&-3%, 22, ., ., ., 15, 0.5, -0.3, .
(42) CC(C)CC(=O)Nc1ccc(C(=O)CN2CCC(C)CC2)cc1
 : 1, 1%, -9, 12, 6, 2.2, -8, 2.5, -0.1, -1.3
(43) Fc1cccc(Cl)c1CSc1nnc2ccccn12
 : -4, ., -1, 15, 6, 3.7, ?, 0.9, -0.3, 0.1
(44) CCOC(=O)N1CCN(S(=O)(=O)c2ccc(OCC)c(C)c2)CC1
 : -1, 1%, ., ., ., ., -2, 1.7, -0.2, .
(45) CCOC(=O)C1(CCCc2ccccc2)CCN(C2CCN(C(C)=O)CC2)CC1
 : -6, -5%, 12, 4, 4, -1.1, -4, 2.9, 0.6, -2.1
(46) COc1ccc(N(CC(=O)NC2CCCCC2C)S(=O)(=O)c2c(C)nn(C)c2C)cc1 (stereo not given)
 : 0, ., 5, 5, 9, -2.4, -7, ?, 0.0, 6.7
(47) CN1N=C(C(C)(C)C)CSC1=Nc1ccc(F)cc1
 : ., 1%, 9, 9, 1, -2.2, -2, -4.1, 1.5, -5.1
(48) CCCS(=O)(=O)c1nc(S(=O)(=O)c2ccc(Cl)cc2)c(N2CCC(O)CC2)s1
 : -3, -11%, -17, -26, -25, 0.3, 0, 0.8, 0.9, 4.8
(49) Cc1ccnc(NS(=O)(=O)c2ccc(NC(=O)Cc3ccccc3)cc2)n1
 : ., 4%, -1, ., ., ., -17, -2.4, -4.1, .
(50) O=C(Nc1ccc(Cl)cc1)OCc1cn(-c2ccc(Cl)cc2)nn1
 : 1, 0%, 31, ., ., ., -1, 1.3, 0.1, .
(51) COc1cc(C(=S)N2CCCC2)ccc1O
 : 0, -6%, 6, ., ., ., 8, 2.0, -0.5, .
